Assay outcomes from PubChem.
E coli growth: E. coli growth inhibition, primary screen, OD600. Escherichia coli growth, 23 h; active compounds read low. OD600 absorbance (no concentration beside the values). hit rate 0.21% among 330,000. AID 1053175, 2014;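 active means OD600 absorbance below the run mean of sample wells minus 3.6 SD, in any replicate, cut at about 0.56 in these data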;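 further: stock transfer was 300 nL into about 60 µL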
FGF22 binding: binders of human FGF22 protein, primary screen, FGF22 synaptogenesis inhibitor project, biophysical, thermal shift, single point; Fibroblast growth factor 22 (Homo sapiens), Q9HCT0; recombinant FGF22 thermal shift, SYPRO orange fluorescence; percent of sucrose octasulfate shift, DMSO zero; calls only at 9.99 µM; hit rate 1.5% among 340,000; AID 651658, 2012;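 active means melting point raised past a set limit in the mean and every replicate; inconclusive means no clear call; three in four hits are not shown here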
UCH37 DUB inh: inhibitors of human UCH37 deubiquitinase, primary screen, biochemical, Ub-AMC cleavage, fluorescence; hit rate 0.33% among 330,000; Ubiquitin carboxyl-terminal hydrolase isozyme L5 (Homo sapiens), Q9Y5K5; purified proteasome/UCH37; inhibition, % (no concentration beside the values);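 active means mean of two replicates above 20%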;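 further: 0% = compound-free wells with enzyme and 100% = wells lacking proteasome; stock transfer was 100 nL into about 20 µL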
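Material: Human UCH37 enzyme supplied as purified proteasome complex | Schedule: 30 min preincubation with enzyme, 25 min cleavage at room temperature | Detection: AMC fluorescence 355/460 nm | Measure: % inhibition of Ub-AMC cleavage fluorescence | Controls: Wells without proteasome as full block, compound-free enzyme plus substrate as uninhibited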
LANA-H2B inh: blockers of LANA interaction with H2A/H2B – biochemical, FP readout, HTS, primary screen; cell-free LANA-H2A/H2B peptide, fluorescence polarization; inhibition, % (test concentration not listed); Protein LANA1 (Human herpesvirus 8 type P (isolate GK18)), Q9QR71; hit rate 0.6% among 320,000; in the data active means inhibition mostly above about 10%, no sharp cut-off; inactive means mostly below about 6.7%;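 further: stock transfer was 7.5 nL into about 10 µL; 0% = median of vehicle wells and 100% = median of positive control wells; one replicate is shown; the record names a cut of 25% in any replicate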
ALR inh: inhibitors of human ALR sulfhydryl oxidase, primary screen, biochemical, H2O2 detection, HRP-luminol luminescence, single point. hit rate 3.8% among 290,000. inhibition, % (concentration not given with the values). purified ALR, DTT oxidation. FAD-linked sulfhydryl oxidase ALR (Homo sapiens), P55789. AID 485317, 2010;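 active means mean and each replicate at 75% or more; inconclusive means only one of the two met; inactive means neither met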;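 further: stock transfer was 7.5 nL into about 7.5 µL; 0% = neutral wells and 100% = wells with inactivated enzyme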
Target sequence (P55789 whole entry, looked up): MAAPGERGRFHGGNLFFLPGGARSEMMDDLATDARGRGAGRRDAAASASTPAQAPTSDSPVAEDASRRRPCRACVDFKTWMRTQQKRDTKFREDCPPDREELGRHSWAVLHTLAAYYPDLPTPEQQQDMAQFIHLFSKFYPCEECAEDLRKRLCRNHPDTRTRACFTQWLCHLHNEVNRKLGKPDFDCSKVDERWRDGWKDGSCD
Beta2AR agonist: beta2AR agonists driving receptor internalization, primary screen, cell-based, FAP fluorogen, flow cytometry; hit rate 0.43% among 340,000; response, % (no concentration beside the values); Am2.2-beta2AR cells; reference of the scale not given here; Beta-2 adrenergic receptor (Homo sapiens), P07550;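 active means response above a set limit, near 3 SD of response in nonfluorescent compounds, cut at about 42% in these data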;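 further: stock transfer was 100 nL into about 11 µL; a reference agonist was the positive control; negative values mostly stem from fluorescent compounds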
Target sequence (P07550 whole entry, looked up): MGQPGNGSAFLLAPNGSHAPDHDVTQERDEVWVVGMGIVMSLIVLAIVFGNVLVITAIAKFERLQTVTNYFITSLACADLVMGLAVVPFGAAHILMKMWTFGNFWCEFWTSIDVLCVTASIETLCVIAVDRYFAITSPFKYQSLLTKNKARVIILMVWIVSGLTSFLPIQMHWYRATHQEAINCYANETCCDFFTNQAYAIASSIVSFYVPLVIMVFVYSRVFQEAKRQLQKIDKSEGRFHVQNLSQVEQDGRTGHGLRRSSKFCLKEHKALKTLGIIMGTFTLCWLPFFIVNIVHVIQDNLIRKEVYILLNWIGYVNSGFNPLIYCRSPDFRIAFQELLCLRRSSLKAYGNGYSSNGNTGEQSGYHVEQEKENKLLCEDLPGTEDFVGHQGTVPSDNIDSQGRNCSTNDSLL
HNF4A DNA FP: change in binding of human HNF4A to DNA, primary screen, biochemical, fluorescence polarization, FITC-DNA. 1 h. activity change, % at 10 µM. hit rate 0.3% among 360,000; in the data active means activity change above about 30%, passing the limit was not always enough;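 further: controls were the assay level and a saturating level of protein; the project sought stronger binding though the title names inhibitors; some compounds called inactive have numbers as strong as hits; positive values seem to mean higher polarization but the record does not say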
Target sequence (P41235 whole entry, looked up): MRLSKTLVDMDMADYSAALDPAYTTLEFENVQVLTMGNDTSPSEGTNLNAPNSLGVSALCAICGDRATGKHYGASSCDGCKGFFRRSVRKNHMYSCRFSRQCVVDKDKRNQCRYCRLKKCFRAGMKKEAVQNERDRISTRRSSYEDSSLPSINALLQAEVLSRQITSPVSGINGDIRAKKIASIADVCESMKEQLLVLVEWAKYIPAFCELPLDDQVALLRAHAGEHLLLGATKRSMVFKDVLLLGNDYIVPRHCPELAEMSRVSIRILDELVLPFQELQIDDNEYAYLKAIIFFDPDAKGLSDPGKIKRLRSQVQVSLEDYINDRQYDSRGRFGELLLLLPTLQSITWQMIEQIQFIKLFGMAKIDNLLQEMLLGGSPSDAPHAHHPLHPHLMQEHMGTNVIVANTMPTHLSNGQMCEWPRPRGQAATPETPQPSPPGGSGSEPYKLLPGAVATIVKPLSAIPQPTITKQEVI
An asterisk follows results filed as active; i = inactive; ? = inconclusive; . = not tested or not shown; & = joins results of further samples. The list is partial; the hit share may differ from the screen's.

#1 Cc1ccc2c(c1)CC1(CN2C)C(=O)NC(=O)N(c2ccccc2C)C1=O (stereo not given)
#2 Cc1ccc(O)c(C)c1
#3 O=c1[nH]c(=O)n(Cc2ccco2)c(O)c1/C=N/N1CCCCC1
#4 CCCCC(CC)COC(=O)c1ccccc1C(=O)OCC(CC)CCCC (stereo not given)
#5 CN(C)Cc1c[nH]c2cc([N+](=O)[O-])ccc12
#6 COc1ccc(CCNC2CCCCCC2)cc1
screen / no.,1,2,3,4,5,6
E coli growth,0.686,0.669,0.7,0.714,0.679,0.613
FGF22 binding,.,i,i,i,i,i
UCH37 DUB inh,0.4,-1.1,6.3,0.7,9.7,5.8
LANA-H2B inh,-1.1,-1.0,-3.4,-0.6,.,5.8
ALR inh,-4.7,-5.0,58.0,-5.0,.,-3.2
Beta2AR agonist,-1.2,8.2,22.5,6.5,-12.2,1.1
HNF4A DNA FP,4.3,-4.0,2.2,5.1,0.1,1.3

Brought forward from above: 4 compounds, then new ones.
#3 O=c1[nH]c(=O)n(Cc2ccco2)c(O)c1/C=N/N1CCCCC1
#4 CCCCC(CC)COC(=O)c1ccccc1C(=O)OCC(CC)CCCC (stereo not given)
#5 CN(C)Cc1c[nH]c2cc([N+](=O)[O-])ccc12
#6 COc1ccc(CCNC2CCCCCC2)cc1
#7 O=C(CN1C2CCC1CC(O)(c1cccnc1)C2)Nc1ccc2c(c1)OCO2 (stereo not given)
#8 CCCNC(=O)N1[C@H]2CC[C@@H]1C(C(=O)OC)=C(c1ccc(OC)c(OC)c1)C2
#9 COC(=O)C1=C(c2ccc(F)cc2F)C[C@@H]2CC[C@H]1N2C(=O)NCCOc1ccccc1
#10 NCC1(c2ccc3c(c2)OCCO3)CCCC1
#11 COc1cccc(O)c1CN1CCCC(C(=O)c2sccc2C)C1 (stereo not given)
#12 Cc1ccc(/C=C2/C(=O)NC(=O)N(CCc3ccc(F)cc3)C2=O)s1
screen / no.,3,4,5,6,7,8,9,10,11,12
E coli growth,0.7,0.714,0.679,0.613,0.684,.,.,0.72,0.649,0.663
FGF22 binding,i,i,i,i,.,i,i,.,i,.
UCH37 DUB inh,6.3,0.7,9.7,5.8,2.9,4.7,4.9,1.6,-0.3,2.8
LANA-H2B inh,-3.4,-0.6,.,5.8,0.9,-2.7,-4.9,-0.1,-3.5,-7.8
ALR inh,58.0,-5.0,.,-3.2,-20.7,-3.7,1.2,-1.9,9.7,28.7
Beta2AR agonist,22.5,6.5,-12.2,1.1,5.5,-3.2,1.5,-2.9,1.4,13.1
HNF4A DNA FP,2.2,5.1,0.1,1.3,-0.6,4.2,3.4,7.8,4.0,1.1

#13 Cc1cccc(N2C(=O)NC(=O)/C(=C/c3ccc(-c4ccc(C(=O)O)c(Cl)c4)o3)C2=O)c1
#14 CCN(C(=O)Oc1ccccc1)c1ccc(C(O)(C(=O)OC)C(F)(F)F)cc1 (stereo not given)
#15 CC(C)Oc1ccc(C2C(C#N)=C(N)Oc3c2c(=O)oc2ccccc32)cc1 (stereo not given)
#16 Clc1ccc(CCNCc2ccncc2)c(Cl)c1
#17 COc1ccccc1C(=O)Nc1ccc2c(c1)CC1(C(=O)N(C)C(=O)N(C)C1=O)C1CCCN21 (stereo not given)
#18 COc1ccc2c(c1)/C(=C/c1cnc[nH]1)C(=O)N2
screen / no.,13,14,15,16,17,18
E coli growth,0.706,0.702,0.695,0.676,.,.
FGF22 binding,.,i,.,i,i,i
UCH37 DUB inh,1.8,3.5,-1.1,7.3,.,5.8
LANA-H2B inh,7.4,-3.1,-9.4,0.4,-5.0,-5.8
ALR inh,50.6,-2.5,.,17.3,-6.9,70.0
Beta2AR agonist,.,3.3,0.1,-10.7,2.0,5.8
HNF4A DNA FP,.,0.8,1.1,-4.0,7.0,4.9

#19 CN1C(=O)NC(=O)/C(=C/c2ccc(C(=O)O)cc2)C1=O
#20 C=CCn1c(O)c(C(CC)=Nc2cc(OC)ccc2OC)c(=O)[nH]c1=O
#21 O=C1NC2C(O)C(O)C(O)C(O)C2c2cc3c(c(O)c21)OCO3 (stereo not given)
#22 CN1CC2([N+](=O)[O-])CC=C(Cl)C([N+](=O)[O-])(C1)C2 (stereo not given)
#23 O=[N+]([O-])c1ccc(NC2CCN(Cc3ccccc3)CC2)c2ccncc12
#24 CC(NC(=O)N1CC1(C)C)c1ccccc1 (stereo not given)
screen / no.,19,20,21,22,23,24
E coli growth,0.696,0.734,.,0.714,0.668,0.7
FGF22 binding,i,.,i,i,i,i
UCH37 DUB inh,2.2,4.1,.,-1.7,8.3,1.1
LANA-H2B inh,-0.1,-6.4,.,9.4,5.5,.
ALR inh,.,0.3,.,.,-0.5,.
Beta2AR agonist,-5.9,-5.0,20.1,-4.7,1.7,-5.3
HNF4A DNA FP,-1.1,0.6,-4.8,0.0,0.2,2.8

#25 O=C1Nc2ccccc2/C1=C/c1nc2ccccc2c(=O)n1-c1ccc(O)cc1
#26 CCOc1ccc(C2SCC(=O)Nc3c2c(=O)[nH]n3C2CCCCCC2)cc1 (stereo not given)
#27 S=C(NC1CCCCC1)N1CCC(c2cnc[nH]2)CC1
#28 CC(C)(C)C(=O)c1cn(Cc2ccccc2)c2ccccc12
#29 O=C1/C(=C/c2cc([N+](=O)[O-])ccc2Cl)N2CCC1CC2
#30 CC1CCCC(NC(=O)CNC(=S)N2CC3CC(C2)c2cccc(=O)n2C3)C1C (stereo not given)
screen / no.,25,26,27,28,29,30
E coli growth,0.711,0.708,0.694,0.683,0.684,0.706
FGF22 binding,i,.,i,i,.,i
UCH37 DUB inh,5.7,0.9,1.9,5.7,3.5,2.4
LANA-H2B inh,-4.6,3.3,2.6,5.6,0.3,2.8
ALR inh,-3.9,-2.0,-2.2,1.8,1.7,.
Beta2AR agonist,3.6,-10.2,-1.9,1.2,14.2,4.2
HNF4A DNA FP,0.1,4.3,0.5,-0.3,-0.8,1.1

#31 O=C1C2CCCN2C(c2cccc(Cl)c2)N1c1ccccn1 (stereo not given)
#32 Nc1ccnn1C1CCNCC1
#33 CCCCCCOc1ccc(CN2CCN(C)CC2)cc1
#34 CN1C(=O)N(C)C(=O)C2(Cc3cc([N+](=O)[O-])ccc3N(C)C2c2ccccc2)C1=O (stereo not given)
#35 Cc1c(C(c2ccccc2Cl)c2c(O)c3ccccc3oc2=O)c(=O)n(-c2ccccc2)n1C (stereo not given)
#36 CCOc1ccc(-n2c(O)c(N=Nc3ccc([N+](=O)[O-])cc3)c(=O)[nH]c2=O)cc1
screen / no.,31,32,33,34,35,36
E coli growth,0.715,0.668,0.648,0.706,0.639,0.668
FGF22 binding,.,.,i,i,.,i
UCH37 DUB inh,0.8,3.9,0.8,3.2,4.6,11.8
LANA-H2B inh,0.2,2.5,-2.9,0.2,-1.5,3.8
ALR inh,0.3,-5.2,-0.7,-37.8,-4.8,1.9
Beta2AR agonist,-12.1,0.5,8.6,.,10.8,7.7
HNF4A DNA FP,-4.6,2.2,-1.0,2.7,-1.4,6.5

#37 Cn1ccc(NC(=O)CCl)n1
#38 COc1cc2c(c(OC)c1OC)-c1ccc(O)c(=O)cc1C(NC(C)=O)CC2 (stereo not given)
#39 CCCCCCC(=O)N/N=C/c1c(O)n(CCCC)c(=S)[nH]c1=O
#40 CC(C)CNP(=S)(c1ccccc1)C(C)(C)C (stereo not given)
#41 COc1ccc([N+](=O)[O-])cc1N=Cc1c(O)n(CCc2ccccc2)c(=O)n(C(C)C)c1=O
#42 COC(=O)C1=C(c2ccc(C(C)=O)cc2)C[C@@H]2CC[C@H]1N2C(=O)NCc1ccc(F)cc1
screen / no.,37,38,39,40,41,42
E coli growth,0.697,0.727,0.633,0.698,0.769,.
FGF22 binding,i,i,i,i,i,i
UCH37 DUB inh,4.1,.,7.8,3.1,5.4,3.8
LANA-H2B inh,-2.6,2.1,-1.5,0.9,-0.1,-0.9
ALR inh,2.5,-16.8,-3.6,-4.1,-8.2,-11.1
Beta2AR agonist,1.5,12.5,2.6,4.1,8.2,-4.2
HNF4A DNA FP,0.9,2.6,-2.8,-1.6,1.6,5.2

#43 Oc1ccc2c3c1O[C@H]1[C@@H](O)CC[C@@]4(O)[C@@H](C2)N(CC2CCC2)CC[C@]314
#44 CCOc1cc2c(cc1OCC)-n1cccc1C(c1cccc(OCC)c1O)NC2 (stereo not given)
#45 FC(F)(F)Oc1ccc(NC2=NCCCS2)cc1
#46 O=c1[nH]c(=S)[nH]c(O)c1N=Nc1ccc2c(c1)OCO2
#47 Oc1c(Br)c(Br)c(Br)c(Br)c1Br
#48 CCS(=O)(=O)CCSP(=O)(OC)OC
screen / no.,43,44,45,46,47,48
E coli growth,.,0.669,0.625,.,.,0.657
FGF22 binding,i,i,i,i,.,i
UCH37 DUB inh,3.6&1.8,1.6,5.3,.,.,2.3
LANA-H2B inh,-1.8&1.8,11.5,0.2,-1.0,1.1,.
ALR inh,?,.,.,-3.6,3.6,.
Beta2AR agonist,-1.9&-7.0,-5.7,-2.5,7.0,3.6,1.6
HNF4A DNA FP,0.1&-0.7,2.0,0.3,42.0*,4.4,-0.7

#49 COC(=O)C1=C(c2ccc(F)cc2OCc2ccccc2)C[C@@H]2CC[C@H]1N2C(=O)N1CCOCC1
#50 COC(=O)C1=C(c2cccc(OCc3ccccc3)c2)C[C@@H]2CC[C@H]1N2C(=O)NCc1ccc(N(C)C)cc1
#51 O=S(=O)(c1ccc(Cl)cc1)c1ccc(Cl)cc1
#52 CC(=O)NC1CC2CCC(C1)N2 (stereo not given)
#53 CCOC(=O)CC(SP1(=S)OCC2(CC=CCC2)CO1)C(=O)OCC (stereo not given)
#54 COc1ccccc1CN1CCN(C(=O)Cc2ccccc2)CC1
screen / no.,49,50,51,52,53,54
E coli growth,.,.,0.682,0.649,0.69,0.735
FGF22 binding,i,i,i,.,i,.
UCH37 DUB inh,4.1,1.9,2.2,1.2,5.4,2.1
LANA-H2B inh,-3.3,-1.0,2.6,3.1,.,-0.8
ALR inh,-10.6,1.8,-11.7,-1.6,.,-14.2
Beta2AR agonist,-2.1,-5.8,-6.5,-6.9,-3.2,-2.0
HNF4A DNA FP,-2.4,4.0,3.5,-0.5,-5.3,-2.0

#55 CC(=O)OC1CCC2(C)C(CCC3C2CC(=O)C2(C)C3CC(N3CC3)C2C(C)=O)C1 (stereo not given)
#56 COc1ccc(CCNCc2cccc(C(F)(F)F)c2)cc1OC
#57 COc1ccccc1OCC#CCN1CCOCC1
#58 N#C/C(=C(/O)c1ccc(S(=O)(=O)N(CCCl)CCCl)cc1)c1nc2ccccc2[nH]1
#59 COc1ccc(-n2c(/C=C/c3cccc(F)c3)nc3ccccc3c2=O)c(OC)c1
#60 CN(CCOc1ccc(C=C2C(=O)NC(=O)NC2=O)cc1)c1ccccn1
#61 Clc1ccc2c(c1)C(c1ccccc1Cl)=NCc1nnc(N3CCN(CCOc4ccccc4)CC3)n1-2
screen / no.,55,56,57,58,59,60,61
E coli growth,.,0.655,0.654,0.68,0.695,0.646,0.677
FGF22 binding,i,i,i,i,i,i,.
UCH37 DUB inh,.,1.6,1.3,-257.0,0.8,-20.1,2.7
LANA-H2B inh,.,0.8,-0.7,-1.3,2.4,0.1,0.9
ALR inh,.,-21.3,-7.1,.,-4.9,0.4,-19.4
Beta2AR agonist,9.6,-5.1,5.2,-7.4,-6.6,-0.6,-14.0
HNF4A DNA FP,-1.2,0.8,-3.1,-2.5,2.6,-1.4,1.9
